Assay outcomes deposited in PubChem by several laboratories.
Insulin prom inh – inhibitors of insulin promoter-driven GFP, primary screen, imaging, TRM-6 cells (human fetal islet line), eGFP reporter, cell count. reporter expression induced with tamoxifen. 130,000 tested, 0.9% active. inhibition, % at 2 µM;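 active = inhibition above the mean plus 3 SD, with well images judged a real hit on visual review, cut at about 60% in these data, passing the limit was not always enough; inconclusive = inhibition over the cutoff but images rejected on review; inactive = inhibition not above the cutoff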
PKD1 kinase inh – inhibitors of human PKD1 kinase, biochemical, fluorescence polarization; Serine/threonine-protein kinase D1 (Homo sapiens), Q15139; PKD1 kinase fluorescence polarization assay; inhibition, %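 (about 10 µM by stock and volumes)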; 200,000 tested, 0.056% active;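 active = inhibition of 50% or more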;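 note: controls were vehicle for no effect and a reference inhibitor for full effect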
RGS16-Gao – modulators of RGS16 binding to Galphao, primary screen, biochemical, human proteins, multiplexed bead flow cytometry; Regulator of G-protein signaling 16 (Homo sapiens) + Guanine nucleotide-binding protein …; bead-based flow cytometry RGS16-Galphao binding, fluorescence; actives lie on both sides; binding response (% of control), % at 10 µM; 220,000 tested, 0.38% active; AID 1441, 2008;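 active = below 25% or above 175%, edge rows of some plates excepted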;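 note: Galphao activated by GDP with aluminum fluoride before binding; 100% = wells without compound and 0% = beads without RGS; some results beyond the cut were filed as inactive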
Target sequence (O15492 whole entry, looked up): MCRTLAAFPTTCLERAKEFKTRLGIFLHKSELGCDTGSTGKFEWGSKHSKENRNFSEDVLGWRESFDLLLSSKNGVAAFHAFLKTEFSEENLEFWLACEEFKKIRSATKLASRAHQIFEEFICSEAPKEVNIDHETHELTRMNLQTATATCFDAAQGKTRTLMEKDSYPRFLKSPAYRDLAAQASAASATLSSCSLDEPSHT
Target sequence (P09471 whole entry, looked up): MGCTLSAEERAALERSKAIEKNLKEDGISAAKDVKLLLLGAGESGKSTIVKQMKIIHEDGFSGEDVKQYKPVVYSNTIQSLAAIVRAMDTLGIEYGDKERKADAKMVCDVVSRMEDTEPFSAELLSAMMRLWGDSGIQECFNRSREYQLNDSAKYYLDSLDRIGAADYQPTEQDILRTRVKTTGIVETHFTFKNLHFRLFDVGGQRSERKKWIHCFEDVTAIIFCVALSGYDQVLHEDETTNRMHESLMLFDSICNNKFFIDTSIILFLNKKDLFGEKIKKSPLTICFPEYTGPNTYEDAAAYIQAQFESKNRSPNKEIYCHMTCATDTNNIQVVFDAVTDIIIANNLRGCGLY
HSV augment – enhancers of HSV replication in host cells, fold increase, host cell viability; 220,000 tested, 0.005% active; HSV replication augmentation in cells; maximum fold increase; AID 1956, 2009;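 active = peak rise of 1.5-fold or more in the series; inconclusive = self-fluorescent or not available for retest; tested in PC3 cells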;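 note: first round at 10 µM; read as green reporter fluorescence; hits show the peak of a series up to 25 µM; 1 = signal of infected wells without compound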
GALR2 agonist – GALR2 receptor agonists, primary screen, cell-based | AID 803, 2007 | Galanin receptor type 2 (Homo sapiens), O43603 | 140,000 tested, 0.48% active | activation, %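 (tested at 5 µM)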 | GALR2-expressing cells, agonist activation read-out;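 active = above mean plus 3 SD of all compounds, about 5% in these data, not always enough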;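 note: 0% = vehicle buffer wells and 100% = reference agonist at full effect; tested in CHO reporter cells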
Target sequence (O43603 whole entry, looked up): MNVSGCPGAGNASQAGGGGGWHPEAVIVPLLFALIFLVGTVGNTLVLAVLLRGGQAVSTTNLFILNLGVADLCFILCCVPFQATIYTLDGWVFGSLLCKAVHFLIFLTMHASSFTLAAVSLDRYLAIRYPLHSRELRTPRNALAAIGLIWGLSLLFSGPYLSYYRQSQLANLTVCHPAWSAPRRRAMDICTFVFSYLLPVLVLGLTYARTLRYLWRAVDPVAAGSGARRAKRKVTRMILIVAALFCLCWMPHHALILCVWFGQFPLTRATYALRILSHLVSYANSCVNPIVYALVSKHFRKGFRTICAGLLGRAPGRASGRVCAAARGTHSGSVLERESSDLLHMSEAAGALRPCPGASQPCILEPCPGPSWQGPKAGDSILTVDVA
Insulin prom inh cell count – also measured in Insulin prom inh; calls as there; normalized cell count, %; measured here: cell count, toxicity; reference of the scale not given here;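 cells exposed to compound for 48 h; stained nuclei by imaging scaled within each plate; lower means fewer cells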
HSV augment primary fold – second read-out of HSV augment, no call of its own (marks repeat the call); fold increase; compound at 10 µM; measured here: primary screen fold increase 10 uM; tested in PC3 cells;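 GFP signal in the first replicate; 1 = infected wells without compound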
Starred values were filed as active, the others as inactive; i = inactive; ? = inconclusive; nt = no result given.

The first 2 compounds as a preview:
molecule	Insulin prom inh	Insulin prom inh cell count	PKD1 kinase inh	RGS16-Gao	HSV augment	HSV augment primary fold	GALR2 agonist
CC1CCN(C(=O)c2ccc3c(c2NCCO)C(=O)c2ccccc2C3=O)CC1	46	47	-11	93	i	0.78	-1.0
C=CCNc1nc2c(c(=O)n(C)c(=O)n2C)n1CC	nt	nt	-6	96	i	0.95	-1.6

This part in full, from the start:
molecule	Insulin prom inh	Insulin prom inh cell count	PKD1 kinase inh	RGS16-Gao	HSV augment	HSV augment primary fold	GALR2 agonist
CC1CCN(C(=O)c2ccc3c(c2NCCO)C(=O)c2ccccc2C3=O)CC1	46	47	-11	93	i	0.78	-1.0
C=CCNc1nc2c(c(=O)n(C)c(=O)n2C)n1CC	nt	nt	-6	96	i	0.95	-1.6
O=C(CN1CCSCC1)N1CCc2[nH]c3ccc(Br)cc3c2C1	-19	59	2	95	i	1	-0.5
Cn1c(N2CCCC2)nc2c1c(=O)n(Cc1cccc(F)c1)c(=O)n2C	41	137	-14	90	i	0.94	0.7
COc1cccc(NC(=O)COc2nc3ccccc3nc2C)c1	nt	nt	-2	99	i	0.98	0.0
COc1ccc(-c2nnc(SCC(=O)NC3CCCCC3)o2)cc1OC	nt	nt	-11	94	i	0.93	-1.1
O=C(CCCN1C(=O)c2ccccc2C1=O)Oc1ccc(Cl)cc1	nt	nt	4	99	i	0.97	-2.6
C(=C\c1ccccc1)/C=N/Nc1nc2ccccc2s1	nt	nt	-8	100	i	1.1	-2.9
O=c1/c(=C\c2cc([N+](=O)[O-])cc([N+](=O)[O-])c2O)sc2nc3ccccc3n12	7	110	-1	102	i	0.91	nt
NC(=O)C1(N2CCCCC2)CCN(CC(=O)Nc2ccccc2Sc2ccccc2)CC1	nt	nt	-18	111	i	1.1	-0.2
Cc1nc(-c2ccccc2)sc1C1(C)CC(c2ccc(OC(F)(F)F)cc2)=NO1 (stereo not given)	nt	nt	nt	83	i	0.91	nt
C/C(=N\Nc1ccc(S(=O)(=O)Nc2ccc(Cl)cc2)cc1[N+](=O)[O-])c1ccc(N2CCOCC2)cc1	20	60	-8	94	i	0.92	-0.8
Nc1nnn(CC(=O)N/N=C/c2cccc(Cl)c2)n1	nt	nt	nt	97	i	0.93	nt
O=[N+]([O-])c1cccnc1NCCNc1ncc(C(F)(F)F)cc1Cl	26	114	6	98	i	1	-2.4
Cn1c(NC(=O)/C=C\c2ccccc2)cc(=O)n(C)c1=O	18	164	2	112	i	0.82	nt
Cc1noc(C)c1S(=O)(=O)Nc1ccc(C(=O)NC2CCCCC2)cc1	nt	nt	0	110	i	0.83	1.6
Cc1ccc(-c2[nH]n3c(=O)c4c(nc3c2C)CCCC4)cc1	24	72	2	104	i	0.7	1.1
CCOCc1nnc(NC(=O)c2ccc(OC)cc2)s1	28	81	2	83	i	0.92	-2.3
O=C(CSc1nnc(-c2ccccc2)o1)c1ccc2c(c1)OCCO2	nt	nt	-15	101	i	1.1	-2.0
CN(C(=O)CSc1nnc(-c2ccco2)o1)C1CCCCC1	-22	114	0	106	i	0.91	-0.8
CC(=O)c1ccc(OCc2ccc(Oc3c(Cl)cccc3[N+](=O)[O-])cc2)cc1	-14	117	4	101	i	0.98	-0.8
O=c1cnnc(N/N=C/c2ccccn2)[nH]1	nt	nt	nt	97	i	0.66	nt
c1ccc2c(c1)Sc1ccccc1-n1cnnc1-2	nt	nt	-3	100	i	0.99	-1.5
CCN1C(=O)/C(=C2\SC(=S)N(CC3CCCO3)C2=O)c2ccccc21 (stereo not given)	nt	nt	-16	101	i	1	-1.2
NC(=O)C1CCN(C(=O)COc2ccc(Nc3ccccc3)cc2)CC1	nt	nt	nt	98	i	0.89	nt
COc1ccc(S(=O)(=O)N(C)CC(=O)Nc2ccccc2SC)cc1	-47	50	-8	-51	i	1	-2.1
Cc1ccsc1/C=N/n1c(C2CCCCC2)n[nH]c1=S	-44	98	5	86	i	1	-0.6
O=C(c1ccco1)N1c2ccccc2Sc2ccccc21	-3	36	-8	104	i	0.95	-2.2
N#Cc1c(SCC(N)=O)nsc1SCc1ccccc1Cl	14	62	8	102	i	0.99	-2.1
C=CCn1c(SCC(=O)N2CCOCC2)nc2sc3c(c2c1=O)CCCC3	11	163	5	89	i	0.93	1.2
COc1cccc2cc(C(=O)C3=C(O)C(=O)N(CCN(C)C)C3c3ccc(F)cc3)oc12 (stereo not given)	12	104	11	87	i	1.1	-0.7
O=c1[nH]c2ccc(S(=O)(=O)N3CCN(c4ccccc4)CC3)cc2[nH]c1=O	-5	47	2	98	i	0.89	-1.0
Cc1c(Cl)cccc1-n1c(SCC(=O)NCc2ccccc2Cl)nnc1-c1ccncc1	0	94	-6	99	i	1.1	0.1
CC(=O)C1C(c2ccccc2Cl)NC(=O)NC1(O)C(F)(F)F (stereo not given)	nt	nt	1	99	i	0.84	-0.1
Cc1ccc(C(=O)N/C(=C/c2ccccc2)C(=O)NC(Cc2ccccc2)C(=O)O)cc1 (stereo not given)	26	149	5	78	i	0.89	-0.4
Cc1cc(=O)oc2cc(OC(=O)c3ccccc3)ccc12	-47	57	1	105	i	1	nt
O=C(COC(=O)COc1ccccc1[N+](=O)[O-])Nc1ccc(S(=O)(=O)N2CCCCC2)cc1	-3	82	2	89	i	0.86	-1.7
CCOc1cccc(N2C(=O)CC(NNC(=O)c3ccc(Br)o3)C2=O)c1 (stereo not given)	nt	nt	nt	93	i	1	nt
CCC(=O)Nc1ccc(-c2nnc(SCC(=O)NCC3CCCO3)n2C)cc1 (stereo not given)	nt	nt	-5	102	i	0.95	-0.5
O=C1/C(=C/c2cccnc2)SC(=S)N1C1CCS(=O)(=O)C1 (stereo not given)	-36	97	0	95	i	0.9	0.5
CCCC(=O)NC(Nc1c(C)n(C)n(-c2ccccc2)c1=O)C(Cl)(Cl)Cl (stereo not given)	-50	98	0	102	i	0.99	nt
CC(C)(CO)NC(=O)CCCOc1ccc(Cl)cc1Cl	-47	127	5	109	i	1	-1.0
O=C(OCc1cn(-c2ccc(Cl)c(Cl)c2)nn1)c1ccccc1	3	80	-11	98	i	0.95	-0.7
CC(C)Nc1nc(NC(C)C)nc(N(C)C#N)n1	77*	111*	-7	103	i	0.79	-2.5
Cc1ccc2oc(=O)n(CC(=O)OC(C)C)c2c1	25	99	-11	103	i	0.81	-2.4
Cc1ccc(C(=O)COC(=O)c2ccccc2NC(=O)c2ccccc2)cc1[N+](=O)[O-]	-55	118	-2	98	i	0.88	-0.2
Cc1cc(C)c(C#N)c(SCC(=O)C2CC2)n1	nt	nt	nt	104	i	0.97	nt
O=c1c2cccnc2nc2n1CCCCC2	nt	nt	11	99	i	0.92	nt
O=C(NCC(O)CN1CCOCC1)c1ccc([N+](=O)[O-])cc1 (stereo not given)	nt	nt	1	98	i	1	nt
CSc1ccc(NC(=O)N2CCN(c3nc4ccccc4s3)CC2)cc1	-17	141	-9	107	i	1.1	-1.3

Next part.
molecule	Insulin prom inh	Insulin prom inh cell count	PKD1 kinase inh	RGS16-Gao	HSV augment	HSV augment primary fold	GALR2 agonist
COc1cccc(N2CC(O)Cn3c2nc2c3c(=O)n(CCCc3ccccc3)c(=O)n2C)c1 (stereo not given)	nt	nt	-4	94	i	0.99	-0.7
CCOC(=O)Cc1ccc(NCc2ccc(Cl)cc2)cc1	nt	nt	-4	107	i	0.94	nt
CCOC(=O)CN1CC23C=CC(O2)C(C(=O)Nc2ccc4c(c2)OCO4)C3C1=O (stereo not given)	nt	nt	-8	100	i	0.73	-2.5
Clc1ccccc1COc1ccccc1-c1nnco1	3	109	-8	112	i	0.87	-3.0
O=C(CN1CCN(c2ccccc2O)CC1)NNC(=O)c1ccc(Cl)cc1	nt	nt	3	96	i	0.95	-0.3
COc1ccccc1NC(=O)CN(c1ccc(C)cc1)S(=O)(=O)c1c(C)n[nH]c1C	nt	nt	-5	97	i	0.91	-0.6
CCCCOc1ccc(C(=O)N/C(=C\c2ccc([N+](=O)[O-])cc2)C(=O)OCc2ccco2)cc1	nt	nt	3	107	i	0.97	0.4
N#CCCNC(=O)CCN1CCCCC1	-50	96	5	98	i	1	-1.8
O=C(N1CCOCC1)C(F)(F)C(=O)N1CCOCC1	7	170	3	104	i	1.1	-1.4
Cc1cc(N2CCC(C(N)=O)CC2)nc(-c2ccccc2)n1	8	130	-9	101	i	1	-0.7
O=C(CSc1nnc(-c2cccnc2)n1-c1ccccc1)Nc1ccccc1	65	99	-3	95	i	0.82	-2.0
Cc1ccccc1-c1nnc(SCCC(=O)N2CCOCC2)o1	36	149	3	99	i	0.78	nt
Cc1onc(-c2ccccc2Cl)c1C(=O)N(C)C1CCCCC1	nt	nt	8	102	i	0.84	-2.5
COc1ccc(/C=C/c2c([N+](=O)[O-])c(=O)n(C)c(=O)n2C)cc1	nt	nt	-4	93	i	0.9	nt
Cc1cc[n+](C(C)C(=O)c2ccc(-c3ccccc3)cc2)cc1 (stereo not given)	41	144	-2	96	i	0.8	nt
CCc1cccc(NS(=O)(=O)c2ccc3c(c2)CCC(=O)N3)c1	nt	nt	1	104	i	0.97	nt
O=C(NC1CCCCC1)C(c1ccc(F)cc1)N(Cc1ccccc1)C(=O)CN1C(=O)c2ccccc2S1(=O)=O (stereo not given)	13	45	-4	106	i	0.73	3.5
CCOc1ccc(NC(=O)CSc2nc(N)c(-c3ccccc3)c(=O)[nH]2)cc1	28	112	-6	105	i	1.1	nt
CC/C(O)=C1\C(=O)CCCC1=NCCc1nc2ccccc2[nH]1	-31	88	-6	100	nt	nt	nt
O=C(Cc1ccccc1)NNS(=O)(=O)c1ccc(F)cc1	nt	nt	-5	104	i	0.94	nt
CCSc1nnc(NC(=O)Cc2ccccc2OC)s1	-3	98	0	102	i	1.1	-0.3
CN1CCc2c(sc3c2C(=O)NC(c2cn(Cc4ccccc4)c4ccccc24)N3)C1 (stereo not given)	-130	74	5	96	?	nt	1.2
CCn1c(CN2C(=O)CSc3ccccc32)n[nH]c1=S	nt	nt	nt	98	i	0.95	nt
COc1ccc(N2CCN(c3ccc(NC(=O)c4ccc5c(c4)OCO5)cc3C#N)CC2)cc1	nt	nt	-13	106	i	0.8	-0.1
Cc1ccc(NC(=O)c2cc(=O)c3ccccc3o2)cc1S(=O)(=O)N1CCOCC1	nt	nt	nt	102	i	0.87	nt
COCC(C)n1c(C)cc(C(=O)COC(=O)c2ccc3c(c2)NC(=O)CS3)c1C (stereo not given)	38	142	-10	90	i	0.96	-1.2
COc1ccc2[nH]c(=O)cc(C(=O)O)c2c1	nt	nt	4	44	i	0.96	nt
O=C(c1cccc(C(F)(F)F)c1)N1CCCC1	-6	200	-5	103	i	1.1	-0.2
CC(C)[C@H](NC(=O)c1ccccc1)C(=O)OCC(=O)N1CC2(C)CC1CC(C)(C)C2 (stereo not given in full)	-7	82	-15	76	i	0.99	-1.1
CC(C)(C)c1ccc(C(=O)c2c[nH]c(C(=O)O)c2)cc1	nt	nt	6	109	i	0.97	nt

Arranged by the number under PKD1 kinase inh (falling): four of the compounds above
molecule	PKD1 kinase inh
COc1cccc(N2CC(O)Cn3c2nc2c3c(=O)n(CCCc3ccccc3)c(=O)n2C)c1 (stereo not given)	-4
CCOc1ccc(NC(=O)CSc2nc(N)c(-c3ccccc3)c(=O)[nH]2)cc1	-6
C(=C\c1ccccc1)/C=N/Nc1nc2ccccc2s1	-8
CCN1C(=O)/C(=C2\SC(=S)N(CC3CCCO3)C2=O)c2ccccc21 (stereo not given)	-16

(continued)
molecule	Insulin prom inh	Insulin prom inh cell count	PKD1 kinase inh	RGS16-Gao	HSV augment	HSV augment primary fold	GALR2 agonist
Cc1nc(N2CCN(S(=O)(=O)c3cccc4nonc34)CC2)c2c3c(sc2n1)CCCC3	-38	106	-9	90	i	0.94	0.1
COc1ccc(N2C(=O)CSC2c2cccs2)cc1 (stereo not given)	-6	90	-5	109	i	0.98	-2.1
COc1ccc(OCCCC(=O)N2CCCc3ccccc32)cc1	nt	nt	-9	96	i	1	0.1
O=C(NCc1ccc(N2CCCC2=O)cc1)c1cccc(Cl)c1	nt	nt	-7	96	i	0.95	nt
